Compound activity from PubChem BioAssay.
TsaE inh: YjeE (TsaE) inhibition, E. coli; purified YjeE, fluorescence polarisation of a bound ADP probe; Potency, µM; 0.05% of 71,000 active; AID 605; active = well fitted falling curve; inconclusive = weaker or top-dose-only fall, or a rising curve; inactive = flat or poorly fitted curve;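 note: top concentration of the series not given in the record; excess ADP was the control for the full effect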
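Fluorescence polarization of a BODIPY Texas Red–ADP probe (2 uM) bound to purified YjeE (10 uM) was read after 15 min room-temperature incubation with compounds. Loss of polarization marks inhibitors; ADP serves as titrated control.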
PK Bst: modulators of Bacillus stearothermophilus pyruvate kinase; Potency, µM; 1.2% of 51,000 active; partly purified Bacillus stearothermophilus pyruvate kinase, luminescence ATP production; ribose 5-phosphate activator present at AC10; in the data active means potency below about 11 µM; inconclusive means mostly about 12 µM to 25 µM; inactive means weaker than that;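 the screen sought inhibitors and activators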;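 note: potency is the fitted concentration of half-maximal effect; scaled between full activation by ribose 5 phosphate and full inhibition by luteolin; about four in five hits inhibit and the cells do not say which; series up to 57 µM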
* hit, by the source's call; i = inactive; ? = inconclusive; / = not tested or not shown. Not all compounds are listed (hit frequency here may not be typical).

Sequence of screens: TsaE inh | PK Bst
O=C(CSc1nnc(-c2ccc(Cl)cc2)n1Cc1ccco1)c1cccs1
    i | >57
Cn1c(=O)c2[nH]c(-c3ccc(S(=O)(=O)O)cc3)nc2n(C)c1=O
    i | /
COC(=O)c1nnn(-c2nonc2N)c1CSc1nc2ccccc2s1
    i | ?
c1ccc(CN2CCN(c3nc(-c4ccccn4)nc4ccccc34)CC2)cc1
    / | >25.6
CC(=O)c1ccc(N2CCN(C(=O)COc3ccc(F)cc3)CC2)c(F)c1
    i | /
CCCCN(C)c1nc(-c2ccco2)c2c(c1C#N)CC(C)(C)OC2
    i | /
Cc1nc2sccn2c(=O)c1CCN1CCC(=C(c2ccc(F)cc2)c2ccc(F)cc2)CC1
    i | >25.6
O=C(Cn1ncn2c(cc3ccccc32)c1=O)NCc1ccco1
    i | >57
Cc1cccc2cc(CN(Cc3ccco3)C(c3nnnn3CCc3ccccc3)C(C)C)c(=O)[nH]c12 (configuration not stated)
    i | >57
Cc1nc2scc(-c3cccs3)c2c(=O)n1-n1cccc1
    i | /
COc1ccc(/C(O)=C2/C(=O)C(=O)N(CCCN(C)C)C2c2cccc(Cl)c2)cc1OC (configuration not stated)
    / | >25.6
CN=C(Nc1cc(C)nn1CCC#N)c1ccccc1F
    i | >57
c1coc(-c2nnc(NC3=NCCC3)o2)c1
    i | >57
COc1ccc(S(=O)(=O)Cc2ccc(C(=O)NCCc3ccc(S(N)(=O)=O)cc3)o2)cc1
    i | /
COc1cccc(Nc2ncc3nc(-c4ccc(Cl)cc4)c(=O)n(C4CC4)c3n2)c1
    i | /
N#Cc1cc(Sc2ccccn2)c(Sc2ccccn2)cc1C#N
    i | /
CC(C)(C)NC(=O)Cn1c(=O)oc2cc(S(=O)(=O)N3CCc4ccccc43)ccc21
    i | /
Cn1c(-c2ccc(F)cc2)cnc1SCC(=O)N1CCCCC1
    i | /
COc1ccc(Br)cc1CNC(=O)C1CCN(S(=O)(=O)N2CCCCC2)CC1
    i | >57
COCCNC(=O)Cn1cc2c(n1)CCC(C)C2 (configuration not stated)
    i | /
CN1CCN(c2nc3ccccc3nc2C(C#N)C(=O)OC2CCCCC2)CC1 (configuration not stated)
    i | /
O=C(CSc1nnc(-c2ccncc2)n1Cc1ccco1)c1ccc(Cl)cc1
    i | >57
CSC1=NCCN1C(=O)c1c(-c2ccccc2Cl)noc1C
    i | /
Cc1nn(CC(=O)O)c2ccccc12
    i | >57
COCCN(CCOC)S(=O)(=O)c1ccc(C(=O)Nc2nnc(C3CC3)o2)cc1
    i | >57
c1cc(-c2nnc(-c3ccncc3)o2)ccn1
    i | /
COc1ccc(C=NCCC2(O)CC(C)N(C)CC2C)cc1 (configuration not stated)
    / | >25.6
CC(CCc1ccccc1)NC(=O)C1CCCN(c2nnc(-n3cccc3)s2)C1 (configuration not stated)
    i | /
CSCCC(NC(=O)c1ccco1)C(=O)O (configuration not stated)
    i | >57
Cc1ccc(NC(=O)CN2CCCCCC2)c(Br)c1
    i | >57
Cn1c(C(=O)Nc2ccc3c(c2)OCCO3)cc2c(=O)n(C)c3ccccc3c21
    i | /
CCCCc1nccn1CCn1ccnc1CCCC
    i | >57
COc1ccc(CC(=O)Nc2nc(C)cs2)cc1OC
    i | >57
COc1ccc(NC(=O)CN2CCN(c3ccc(F)cc3)CC2)cc1Cl
    i | >57
COC(=O)[C@@H](NC(=O)NCc1cccc(OC)c1)C(C)C
    i | >57
CC(=O)N1CCN(Cc2nc3cc(NS(C)(=O)=O)ccc3n2C)CC1
    i | >57
Cn1c(SCC(=O)Nc2ccc3c(c2)OCO3)nnc1-c1cnccn1
    i | >57
CCOC(=O)c1c(-c2ccc(C)o2)csc1NC(=O)CSc1nncs1
    i | >57
CCCCn1c(O)c(C(CC)=Nc2ccc3c(c2)CCC3)c(=O)[nH]c1=O
    i | >57
CCC(=O)Nc1cccc(-n2nnnc2SCC(=O)NCc2ccco2)c1
    i | >57
Cc1cc(C(=O)NC2=NCCS2)cs1
    i | /
Cc1c(NC(=O)NC(C)N2C(=O)C3C4C=CC(C4)C3C2=O)c(=O)n(-c2ccccc2)n1C (configuration not stated)
    i | >57
N[C@H](C(=O)O)c1nn[nH]n1
    i | /
O=C(O)C1CCCCC1C(=O)NCCc1ccncc1 (configuration not stated)
    i | >57
COc1ccc(N=C2SC(CC(=O)Nc3ccccc3)C(=O)N2CC2CCCO2)cc1 (configuration not stated)
    i | >57
Cc1nc(NCc2ccccc2)c2nc(-c3ccccc3)n(C3CCN(Cc4ccccc4)C3)c2n1 (configuration not stated)
    i | /
O=C(c1ccccc1F)N1CCN(S(=O)(=O)c2ccc3c(c2)OCCO3)CC1
    i | /
O=C(OCc1nc2ccccc2s1)C1CCN(C2=NS(=O)(=O)c3ccccc32)CC1
    i | /
O=C(O)c1cc(Cl)c2ccccc2c1O
    i | >11.4
O=S(=O)(NC1CC1)c1ccc(S(=O)(=O)N2CCCC(c3nc(-c4cccnc4)no3)C2)cc1 (configuration not stated)
    i | >57
CCn1c(SCC(=O)Nc2ccc3c(c2)OCO3)nnc1-c1ccccc1O
    i | >57
CCCCOc1ccc(NC(=O)Cn2c(=O)ccc3c(C)cc(C)nc32)cc1
    i | >57
CN(C)C/C(Cl)=C(\Cl)c1ccccc1
    / | >25.6
CCCCCCN(C(=O)CCCCCN1C(=O)NC(c2ccc3ccccc3c2)C(C(=O)OCc2ccccc2)=C1C)C(C(=O)NCCCC)c1ccc(OCC(=O)OC)c(C(=O)OC)c1 (configuration not stated)
    i | /
O=C(Nc1nnc(COc2ccc(Cl)cc2)s1)c1cccs1
    i | >57
CC(=O)Nc1ccc(S(=O)(=O)n2nc(-c3ccc(C)cc3)nc2N)cc1
    i | >57
Cc1cc(=O)[nH]c(SCCOc2ccc(OC(C)C)cc2)n1
    i | /
O=c1c2c3c(sc2nc2n1CCC2)CCC3
    i | /
CCOC(=O)C1CCN(c2c(NCCN3CCCCC3C)c(=O)c2=O)CC1 (configuration not stated)
    i | /
CCCn1c(N)c(C(=O)CSc2nc3ccccc3n2CCC#N)c(=O)n(C)c1=O
    i | >57

Other records
Sequence of screens: TsaE inh | PK Bst
CC(C)NS(=O)(=O)c1ccc(CCC(=O)O)cc1
    i | >57
COc1ccc(CNc2ccc(S(N)(=O)=O)cc2)c(OC)c1OC
    i | >57
CN1CCN(C(=O)c2ccc(N(Cc3ccc(Cl)cc3)S(C)(=O)=O)cc2)CC1
    i | >57
COc1ccc(-c2cc(C(F)F)n3ncc(C(=O)N4CCN(C(=O)c5ccco5)CC4)c3n2)cc1
    i | /
COc1ccccc1NC(=O)CN1CCN(C2c3ccccc3-c3ccccc32)CC1
    i | >57
CCC(C)Sc1nc2c(c(=O)[nH]c(=O)n2C)n1Cc1ccc(Cl)cc1 (configuration not stated)
    i | >57
CC(=O)c1ccc(OCCCC(=O)NCC(c2ccco2)N(C)C)cc1 (configuration not stated)
    i | >57
Nc1c(C(=O)NCc2ccco2)nnn1-c1ccccc1
    i | >57
Cc1nnc(NC(=O)C2CCCO2)s1 (configuration not stated)
    i | >57
COc1ccc(OC)c(C(=O)CSc2nc3c(c(=O)n(C)c(=O)n3C)n2C(C)C)c1
    i | >57
CCOC(=O)c1c(SC)nc(SC)c2c1CCC2
    / | >25.6
COc1ccc(N=CC2=C(O)CCCC2=O)cc1
    i | /
O=C(CN1CCOCC1)OCCCc1ccccc1
    i | >57
CCC(CO)N=CC1=C(O)C(C(=O)c2ccccc2)CCC1=O (configuration not stated)
    i | /
Nc1nc(-c2ccccc2)c(CC(=O)O)s1
    i | /
Cc1ccc(N2C(=O)[C@@H]3[C@H](C2=O)C2c4ccccc4C=CN2[C@@H]3C(=O)c2ccco2)cc1 (some centres not stated)
    i | >57
COC(=O)c1ccccc1NC(=O)c1c(O)c2cccc3c2n(c1=O)CCC3
    i | >57
CCOC(=O)CC(=O)CSc1ncc(C(=O)OCC)c(N)n1
    i | >57
Cn1ccnc1C(O)c1ccco1 (configuration not stated)
    i | >57
CS(=O)(=O)NCc1ccc(C(=O)NCc2ccccc2)cc1
    i | >57

Ordered by count of non-hydrogen atoms (low to high): part of the list above
Sequence of screens: TsaE inh | PK Bst
Cn1ccnc1C(O)c1ccco1 (configuration not stated)
    i | >57
Cc1nnc(NC(=O)C2CCCO2)s1 (configuration not stated)
    i | >57
O=C(CN1CCOCC1)OCCCc1ccccc1
    i | >57
COC(=O)c1ccccc1NC(=O)c1c(O)c2cccc3c2n(c1=O)CCC3
    i | >57

2 entries picked at random from those above:
Sequence of screens: TsaE inh | PK Bst
CCC(C)Sc1nc2c(c(=O)[nH]c(=O)n2C)n1Cc1ccc(Cl)cc1 (configuration not stated)
    i | >57
COc1ccccc1NC(=O)CN1CCN(C2c3ccccc3-c3ccccc32)CC1
    i | >57

(further entries)
Sequence of screens: TsaE inh | PK Bst
COc1ccccc1CC(=O)N1CCCC1
    i | >57
COC(=O)CN1CCN(C(=O)c2ccc(F)cc2)c2ccccc2C1
    i | >57
COC(=O)c1c(NC(=O)CN2CCN(Cc3ccc4c(c3)OCO4)CC2)sc(C)c1C
    i | >57
Cc1cc(NC(=O)C(C)C)ncc1NC(=O)Cc1ccccc1
    i | >57
C/C(O)=C(/N=O)C(=O)Nc1ccccc1
    i | >57
O=S(=O)(Nc1ccccc1N1CCOCC1)c1ccc(Cl)s1
    i | >57
CCCOc1ccccc1NC(=O)c1c(-c2ccccc2)noc1C
    i | /
C[C@@]12C[C@H](O)[C@@H]3[C@H](CCC4=CC(=O)CC[C@]43C)[C@H]1CC[C@@H]2c1csc(N)n1
    i | /
N[C@@H](Cc1ncccn1)C(=O)O
    i | /
COCCNc1cc(C)nc2c3c(C)cc(C)nc3nn12
    i | /
CC(=O)c1c(C)cc(C)c(CSc2nnc(-c3ccco3)o2)c1C
    i | >57
O=C(CCc1nc(-c2ccccc2F)no1)NCCN1CCOCC1
    i | >57
Cc1ccc2c(c1)N(CCC(=O)NCc1ccco1)C(=O)CO2
    i | ?
Cc1cc(C)n(Cc2ccc(C(=O)NCc3ccco3)o2)n1
    i | >57
Cc1cc(C)n(Cc2ccc(C(=O)O)o2)n1
    i | >57
C=CCc1c(C)nc(SC(C)C)[nH]c1=O
    i | >57
O=C(CN1CCN(Cc2ccccc2)CC1)NC(=O)NCc1ccco1
    i | >57
CCc1cc(=O)oc2cc3oc(C)c(C)c3cc12
    i | >57
Cc1nc(N2CCOCC2)c2cc(-c3ccccc3)sc2n1
    i | ?
C=CCSc1nnc2n(-c3ccccc3OC)c(=O)c3c4c(sc3n12)CCC4
    / | i
c1ccc(-c2csc3nnc(SCc4ccc5c(c4)OCO5)n23)cc1
    i | /
CC1CCc2nn(CC(=O)N3CCCCCC3)cc2C1 (configuration not stated)
    i | /
Cn1cc(-c2nc3cnc(OCc4ccccc4)nc3n(CCC#N)c2=O)c2ccccc21
    i | /
CN(C)C(=O)c1ccc(-c2nc(-n3ccnc3)c3ccccc3n2)cc1
    i | /
Cc1ccc(Cl)cc1N1CCN(Cc2nnnn2Cc2ccco2)CC1
    i | >57
O=S(=O)(c1ccc(F)cc1)c1nc(-c2ccc(F)cc2)oc1NCCN1CCOCC1
    i | >57
CCN(CC)c1ccc(-c2nc3cnccc3n2C)cc1
    i | i
O=C(c1ccc(=O)oc1)N1CCN(c2ccc(F)cc2)CC1
    / | >25.6
COCCn1c(=O)[nH]c2cc(C(=O)NCCN3CCN(c4ccccc4)CC3)ccc2c1=O
    i | >57
Cc1ccc(S(=O)(=O)N(C)CC(=O)N2CCN(C(=O)c3ccco3)CC2)cc1
    i | >57
COc1cccc(-c2cc(C(=O)NCCN3CCOCC3)no2)c1
    i | >57
CC1Cc2ccccc2N1C(=O)C1CCN(S(=O)(=O)Cc2ccccc2)CC1 (configuration not stated)
    i | >57
CCOC(=O)CSc1nc2sc(C(=O)O)c(C)c2c(=O)[nH]1
    i | /
CCc1nc(SCC(=O)NCCc2ccccc2)n[nH]1
    i | >57
COc1ccc(Br)cc1C(=O)Nc1nnn(C)n1
    i | >57
CC1CCN(S(=O)(=O)c2ccc(NC(=O)CN3CCN(c4ccccc4)CC3)cc2)CC1
    i | >57
CCc1nc(N2CCCCC2C)c2oc3ccccc3c2n1 (configuration not stated)
    i | >57
CCCC(=O)NC(Nc1ccc(S(=O)(=O)Nc2ncccn2)cc1)(C(=O)OCC)C(F)(F)F (configuration not stated)
    i | >57
c1ccc(Cn2nnc3c(NCC4CCCO4)ncnc32)cc1 (configuration not stated)
    i | >57
O=CNCC(=O)NCCc1ccc(Cl)cc1
    i | >57
CCc1ccccc1N(CC(=O)N1CCN(c2ccccc2)CC1)S(C)(=O)=O
    i | /
O=C(O)CC(CP(=O)(c1ccccc1)c1ccccc1)C(=O)O (configuration not stated)
    i | >57
CCn1ncc2c1C(=O)NC1c3ccccc3C(=O)N21 (configuration not stated)
    i | >57
C=CCNc1nc(NCCN2CCOCC2)nc(N2CCOCC2)n1
    i | >57
CCc1ccc2[nH]c(=O)c(CN(Cc3ccc4c(c3)OCO4)Cc3nnnn3C3CCCC3)cc2c1
    i | >57
O=C(O)CCN1/C(=C/C=Nc2ccccc2)Oc2ccccc21
    i | >57
CCOC(=O)N=S(N)(=O)c1ccccc1 (configuration not stated)
    i | >57
c1csc(-c2nn3c(C4COc5ccccc5O4)nnc3s2)c1 (configuration not stated)
    i | >57
